Screening results: PubChem, several laboratories
Bead autofluor: compound fluorescence in toxin protease inhibitor counterscreen. compound autofluorescence counterscreen, microsphere flow cytometry; hits give high values. fluorescence intensity (concentration not given with the values). actives 3.1% (n = 360,000). AID 624483;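 active = at least 3 SD above the mean of all compounds, about 16000 in these data; inconclusive = too few beads counted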;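 note: 100 nL of 1 mM stock went into each well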
BJeLR lethal: MLPCN primary cell-based screen for lethality selective to Ras in HRASV12 cells; BJeLR (HRASV12) viability, CellTiter-Glo ATP luminescence, 48 h; reference of the scale not given here; inhibition, % (concentration not given with the values); actives 0.17% (n = 300,000); AID 1554, 2009;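 active = replicate mean above 50%; inconclusive = above 50% but judged a plate artefact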;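 note: 50 nL library stock added to about 25 µL; numbers are from one replicate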
PrP 5UTR inh: inhibition of PrP 5' UTR reporter expression; inhibition, % (no concentration beside the values); AID 488862, 2010; actives 0.35% (n = 340,000); cell-based PrP 5' UTR mRNA reporter, plate reader;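 active = every replicate at 50% or more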;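 note: 0 = median of the neutral control wells; tested in H4 reporter cells; numbers are from one replicate; inactives centre near -14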
Mtb hypoxia rep: PubChem AID 1159583; fluorescence inhibition, % (concentration not given with the values); actives 0.1% (n = 300,000); M. tuberculosis hypoxia-regulated fluorescent reporter, fluorescence;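 active = 35 to 45% if threefold the growth effect, above 45% if 1.5-fold the growth effect; inactive = the rest, general growth blockers included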;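 note: wells of about 50 µL received 100 nL stock; 0% = vehicle wells and 100% = reference inhibitor wells; whole bacteria with a GFP reporter of the hypoxia response; strong numbers were not always called active; many hits fall short of the cut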
Sa RN4220 lethal: growth inhibition of S. aureus RN4220, primary screen, OD600; 16 h; inhibition, % (no concentration beside the values); actives 0.33% (n = 330,000);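 active = z-score of -3 or lower and OD600 up to 0.18 on both plates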;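 note: plate controls were untreated cells for no effect and reference antibiotic for full effect; stock transfer was 100 nL into about 80 µL; one replicate is shown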
Sa ugtP lethal: growth inhibition of ugtP-null S. aureus, primary screen, RN4220 ugtP deletion, OD600 | 16 h; some inactives read as strong as hits | growth inhibition, % (no concentration beside the values) | actives 0.54% (n = 330,000);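 active = z-score under -3 and OD600 up to 0.15 on both plates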;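 note: plate controls were untreated wells for no effect and antibiotic for full effect; wells of about 80 µL received 100 nL stock; the first replicate is given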
Mtb hypoxia rep growth: second read-out of Mtb hypoxia rep, no call of its own (marks repeat the call); growth inhibition, %; measured here: M. tuberculosis growth (absorbance);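 0% = vehicle and 100% = reference antibiotic; read after six days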
* hit, by the source's call; u = inconclusive; x = no result given.

SMILES	Bead autofluor	BJeLR lethal	PrP 5UTR inh	Mtb hypoxia rep	Mtb hypoxia rep growth	Sa RN4220 lethal	Sa ugtP lethal
O=C(CSc1nc2c(cnn2-c2ccc(F)cc2)c(=O)[nH]1)Nc1nccs1	5339	-7	-14	2	8	-4.6	-4
Cc1cc(C)n2nc(C(=O)N(C)c3c(N)n(Cc4ccccc4)c(=O)[nH]c3=O)nc2n1	4759	5	-8	-9	11	-2.2	-8
Cc1ccccc1OCC(=O)N1CCC2(CC1)CC(=O)c1ccccc1O2	u	0	-24	-2	-5	-3.3	2
O=C(/C=C/c1ccc(F)cc1)Nc1cc(S(=O)(=O)N2CCOCC2)ccc1N1CCCC1	3073	-2	6	2	0	4.6	6
O=C(NC1C=CS(=O)(=O)C1)c1sc2ccccc2c1Cl (stereo not drawn)	10252	1	-32	14	12	9.5	8
COc1nsnc1NS(=O)(=O)c1ccc(NC(=S)NC(=O)c2ccncc2)cc1	3266	5	44	22	19	7.5	17
O=c1[nH][nH]cc1C=Nc1ccccc1Cl	2374	-3	-6	1	0	2.5	-3
COC(=O)N/N=C/c1ccc([N+](=O)[O-])o1	4085	-1	7	x	x	x	x
CCOC(=O)c1sc2nc3c(cc2c1N)COC(C)(CC)C3 (stereo not drawn)	10671	7	-37	12	13	2.7	0
CC(CN(C)C1CCN(C)CC1)c1ccccc1 (stereo not drawn)	4084	6	-10	2	4	-4.1	-1
COCCn1c(C)cc(C(=O)CSc2nc3ccccc3c(=O)n2Cc2ccco2)c1C	2073	2	-24	x	x	x	x
Cn1c(Cc2ccccc2)nnc1SCC(=O)NC1CCCC1	3690	-3	-17	3	-1	2.9	11
CCn1c(C)nc2cc(C(=O)NN=Cc3ccc(O)c(O)c3O)ccc21	x	x	x	-1	-1	19	-9
CCOP(=O)(OCC)C(C)(C)NC(=O)C(Cl)(Cl)Cl	6048	14	-15	0	14	2.9	-10
CN1CCN(C(=O)c2ccc(COc3ccc(C(C)(C)C)cc3)o2)CC1	2926	3	-37	1	9	10	-3
CNC(=O)COC(=O)/C=C/c1c(C)nn(-c2ccccc2)c1C	2440	6	-24	8	8	3.1	4
CN(c1ccccc1)S(=O)(=O)c1cccc(C(=O)OCC(=O)Nc2ccc3[nH]c(=O)[nH]c3c2)c1	6074	5	-7	-3	-5	6.1	1
Cc1ccn(C(=O)c2cc3cc(Cl)ccc3oc2=O)n1	10141	2	-33	14	7	2.8	9
CCOc1ccc(OCCOc2cccc(C(F)(F)F)c2)cc1	2777	-5	1	x	x	-1.8	18
CCC(=O)Oc1ccc(-c2cnc3ccccc3n2)cc1	10525	8	-106	13	5	8.2	-1
NS(=O)(=O)c1ccc(N2CCN(C(=O)C3COc4ccccc4O3)CC2)nc1 (stereo not drawn)	x	x	-19	3	-6	0.5	4
COC(=O)c1ccc(N2NC(=O)/C(=C/c3ccc(OC)c(OC)c3)C2=O)cc1	4164	-5	-9	11	8	2.0	2
O=C(NCc1ccccc1)c1cccc(COc2ccccc2Cl)c1	4154	20	-48	x	x	-3.1	6
O=C(Nc1ccc(Cl)c(S(=O)(=O)N2CCOCC2)c1)c1ccc(OCC2CCCO2)cc1 (stereo not drawn)	5019	10	-25	x	x	x	x
Cc1cccc(C)c1NC(=O)c1ccc2c(c1)CCN2S(C)(=O)=O	4354	-4	-5	5	-4	0.3	-2

4 entries from above in a different format.
SMILES | Bead autofluor | BJeLR lethal | PrP 5UTR inh | Mtb hypoxia rep | Mtb hypoxia rep growth | Sa RN4220 lethal | Sa ugtP lethal
CC(CN(C)C1CCN(C)CC1)c1ccccc1 (stereo not drawn) | 4084 | 6 | -10 | 2 | 4 | -4.1 | -1
CCOP(=O)(OCC)C(C)(C)NC(=O)C(Cl)(Cl)Cl | 6048 | 14 | -15 | 0 | 14 | 2.9 | -10
NS(=O)(=O)c1ccc(N2CCN(C(=O)C3COc4ccccc4O3)CC2)nc1 (stereo not drawn) | x | x | -19 | 3 | -6 | 0.5 | 4
CCOc1ccc(OCCOc2cccc(C(F)(F)F)c2)cc1 | 2777 | -5 | 1 | x | x | -1.8 | 18

Continued.
SMILES	Bead autofluor	BJeLR lethal	PrP 5UTR inh	Mtb hypoxia rep	Mtb hypoxia rep growth	Sa RN4220 lethal	Sa ugtP lethal
CCn1c(NC(=O)C(C)C)c2ccccc2nc1=O	7036	4	-32	-3	2	3.9	10
COc1ccccc1/C=N\Nc1cc(C)nc(-n2nc(C)cc2C)n1	2428	22	2	x	x	x	x
CCCCn1c(SCC(=O)Nc2cc(C)on2)nc2cc(S(N)(=O)=O)ccc21	2958	x	-5	-3	-2	5.1	9
COc1cc(NC(=O)COc2ccccc2[N+](=O)[O-])ccc1NC(=O)c1ccco1	5403	4	-13	4	0	3.1	-2
COc1ccc(/C=N/NC(=O)c2cccc(NC(=O)c3ccccc3)c2)c(C(=O)O)c1OC	3593	2	-23	x	x	x	x
Cc1ccc(NC(=O)Cn2c3ccc(F)cc3c3nc4n(c(=O)c32)CCS4)cc1F	4398	0	5	11	-1	-5.0	-1
CC(C)CN(C(=O)CC(C)c1ccccc1)c1c(N)n(Cc2ccccc2)c(=O)[nH]c1=O (stereo not drawn)	u	1	-14	4	14	0.9	7
Cc1ccc2c(c1)N(CC(=O)NCC1CCCO1)C(=O)C(C(C)C)O2 (stereo not drawn)	3379	-9	-2	-9	-8	-2.4	5
Cc1cnc(N2C(=O)c3ccc([N+](=O)[O-])cc3C2=O)s1	4349	4	-26	12	7	-0.6	14
CCCn1c(=O)c(C(=O)NCc2ccc(OC)c(OC)c2)c(O)c2ccccc21	2820	-14	-30	-2	12	14	9
O=C(Cc1ccc(NS(=O)(=O)c2ccc(F)cc2)cc1)NCc1cccnc1	3849	-15	-24	-9	-1	2.4	1
S=c1[nH]c(-c2ccccc2)cn1/N=C/c1ccncc1	4588	6	-29	x	x	x	x
Cc1ccc(C(=O)N2CCN(c3ccc(C(F)(F)F)cn3)CC2)o1	u	x	-7	3	7	1.7	0
Cc1cc(C(=O)OCC(=O)Nc2c(Cl)cccc2C(F)(F)F)c(C)o1	5563	2	-10	6	4	5.3	3
Cc1ccsc1C(=O)N[C@@H](C)c1nnc2ccccn12	5839	-9	-17	15	4	1.0	7
COc1cc(NC(=O)c2ccccc2)c(OC)cc1NC(=O)CN1C(=O)NC2(CCCCC2C)C1=O (stereo not drawn)	7918	x	-8	-3	-1	4.2	-1
COc1ccc(C2=NOC(C(=O)Nc3cccnc3Cl)C2)cc1 (stereo not drawn)	2227	7	-24	11	0	-1.8	5
COC(=O)c1ccc(CSc2nc3ccccc3c(=O)n2Cc2ccco2)o1	4462	-8	-13	8	10	-2.6	27
Cc1cc(OCCOCCNC(C)C)cc(C)c1Cl	3411	10	-1	7	17	-2.4	-10
O=C1N(c2ccccc2)C[C@@H]2C[C@@H](c3cccs3)N3CCC[C@@]123	6422	3	-23	-7	1	4.5	1
CCN(CC)c1ccc(NC(=O)COC(=O)c2cccs2)cc1	22712*	-4	-21	3	11	3.3	-11
CCOC(=O)c1cnc(SC2CCc3ccccc3C2=O)nc1N (stereo not drawn)	6236	-6	-6	11	6	6.1	6
O=S(=O)(NCc1ccccc1)c1ccc(F)cc1Br	3913	5	6	12	4	14	6
COc1ccc(C(C)C)cc1S(=O)(=O)N1CCC(C(=O)NCc2cccnc2)CC1	5486	-3	-23	-14	4	3.2	0
Cc1ccc(C2C3=C(NCCN=C3c3ccccc3)C(=O)N2c2ccccc2)cc1 (stereo not drawn)	11112	-16	-18	13	6	-1.2	-3

Later entries.
SMILES	Bead autofluor	BJeLR lethal	PrP 5UTR inh	Mtb hypoxia rep	Mtb hypoxia rep growth	Sa RN4220 lethal	Sa ugtP lethal
O=C(COC(=O)c1ccc(S(=O)(=O)Nc2ccccc2)cc1)NCc1ccco1	u	-1	-16	2	-6	1.7	-1
O=C(NCc1ccccc1Cl)c1ccc(Cn2cc(C(F)(F)F)ccc2=O)cc1	17060*	2	-7	3	-5	-4.3	8
CCSc1nc(N2CCOCC2)c2ccccc2n1	4066	14	2	x	x	3.3	6
O=C(Nc1ccc(N2CCOCC2)cc1)c1ccc2nc(-c3ccco3)c(-c3ccco3)nc2c1	10125	-1	-41	4	3	1.3	-5
CCc1cccc(OCCn2ccnc2)c1	2653	6	-15	5	-4	6.0	2
CCN(CC(=O)NCC(=O)Nc1ccc(Br)cc1C)Cc1ccccc1	x	-7	-4	-1	7	-2.7	2
COC(=O)c1ccc(NC(=O)CN(C)Cc2cccc(F)c2)cc1	3372	-5	9	-3	-4	5.2	-5
CCOc1ccccc1N1CCN(CC(=O)Nc2ncc(C)s2)CC1	3909	-2	-24	21	4	-0.7	3
Cc1ccc(Nc2ccc(C(N)=O)cc2[N+](=O)[O-])cc1	2048	8	-42	17	3	8.7	1
O=C(CN1C(=O)c2ccccc2S1(=O)=O)NC1CCCCCC1	4988	0	1	x	x	0.1	5
Nc1nc(SCC(=O)NCc2ccc(F)cc2)[nH]c(=O)c1NC(=O)c1ccc(Cl)cc1	2592	-1	-18	x	x	x	x
COc1ccc(C2C(C(=O)N3CCOCC3)c3ccccc3C(=O)N2c2ccc(OC)cc2)cc1 (stereo not drawn)	3038	-7	-19	x	x	-1.5	2
CC1Cc2cc(S(=O)(=O)NCCC(=O)N(C)Cc3ccccc3)ccc2N1C(=O)C1CC1 (stereo not drawn)	5553	-2	-16	-1	1	1.9	7
Cc1ccc(NC(=O)NNC(=O)c2ccc3c(c2)NC(=O)C(C)(C)O3)cc1	5716	2	-20	12	7	3.9	3
Cc1csc(CNC(=O)C2CCC(=O)N(CCc3cccc(F)c3)C2)n1 (stereo not drawn)	5315	-6	-7	5	5	5.1	-1
Cc1ccc(C(=O)O)cc1NS(=O)(=O)c1ccc2ccccc2c1	4022	0	-28	2	-3	1.5	1
COC(=O)/C(=N\OCc1ccc(C#N)cc1)c1c(C)nn(C)c1C	3641	-1	-19	x	x	x	x
CS(=O)(=O)Nc1ccc(C(=O)CC(=O)Nc2ccc([N+](=O)[O-])cc2)cc1	x	-5	-17	-2	-1	4.0	13
Cc1ccc(NCC(=O)NN=Cc2cccc(Oc3ccccc3)c2)cc1	x	x	x	4	0	-5.3	-34
Cc1ccsc1C(=O)NNC(=O)c1csc(N2CCOCC2)n1	5416	-5	-16	4	4	-0.8	-2
Cc1cc(NC(=O)CCS(=O)(=O)c2nc(-c3ccccc3)cc(C(F)(F)F)n2)no1	2583	x	-7	x	x	2.1	13
Cc1ccc(C(=O)C2=C(O)C(=O)N(c3ncccn3)C2c2ccc(Br)cc2)o1 (stereo not drawn)	x	0	x	6	8	4.7	4
Cc1ccc(-n2c(Cc3cccn3C)nnc2SCC(=O)NCc2ccc3c(c2)OCO3)cc1	21493*	9	9	2	-4	3.4	7
COc1cccc(C2CC(c3ccc(F)cc3)Nc3nc(N)nn32)c1 (stereo not drawn)	5235	-3	-17	x	x	3.9	3

Of the compounds above, these contain a COOH group.
SMILES	Bead autofluor	BJeLR lethal	PrP 5UTR inh	Mtb hypoxia rep	Mtb hypoxia rep growth	Sa RN4220 lethal	Sa ugtP lethal
COc1ccc(/C=N/NC(=O)c2cccc(NC(=O)c3ccccc3)c2)c(C(=O)O)c1OC	3593	2	-23	x	x	x	x
Cc1ccc(C(=O)O)cc1NS(=O)(=O)c1ccc2ccccc2c1	4022	0	-28	2	-3	1.5	1

Already shown: 6 of the compounds above.
SMILES	Bead autofluor	BJeLR lethal	PrP 5UTR inh	Mtb hypoxia rep	Mtb hypoxia rep growth	Sa RN4220 lethal	Sa ugtP lethal
O=C(CSc1nc2c(cnn2-c2ccc(F)cc2)c(=O)[nH]1)Nc1nccs1	5339	-7	-14	2	8	-4.6	-4
Cc1cc(C)n2nc(C(=O)N(C)c3c(N)n(Cc4ccccc4)c(=O)[nH]c3=O)nc2n1	4759	5	-8	-9	11	-2.2	-8
Cc1ccccc1OCC(=O)N1CCC2(CC1)CC(=O)c1ccccc1O2	u	0	-24	-2	-5	-3.3	2
O=C(/C=C/c1ccc(F)cc1)Nc1cc(S(=O)(=O)N2CCOCC2)ccc1N1CCCC1	3073	-2	6	2	0	4.6	6
O=C(NC1C=CS(=O)(=O)C1)c1sc2ccccc2c1Cl (stereo not drawn)	10252	1	-32	14	12	9.5	8
COc1nsnc1NS(=O)(=O)c1ccc(NC(=S)NC(=O)c2ccncc2)cc1	3266	5	44	22	19	7.5	17
